Source: PubChem
ClpP mod: qHTS Assay for Activators of ClpP; purified B. subtilis ClpP, FRET peptide cleavage, 20 min; 340,000 compounds, 1.9% hits; AID 651965, 2013; Potency, µM (doses to about 57.5 µM), inactives show top-dose activity change, negative = active; ATP-dependent Clp protease proteolytic subunit (Bacillus subtilis (strain 168)), P80244; active = well fitted falling curve with a large enough effect; inconclusive = small, poorly fitted or top-dose-only effect; inactive = no such curve, though single readings can be large or run the other way; note: potency is the fitted concentration of half-maximal effect; the source files actives as falling curves though it sought activators and does not explain the sign; nearly all actives have a fitted effect of over 65% in size; many hits overshoot -100%
Target sequence (P80244 whole entry, looked up): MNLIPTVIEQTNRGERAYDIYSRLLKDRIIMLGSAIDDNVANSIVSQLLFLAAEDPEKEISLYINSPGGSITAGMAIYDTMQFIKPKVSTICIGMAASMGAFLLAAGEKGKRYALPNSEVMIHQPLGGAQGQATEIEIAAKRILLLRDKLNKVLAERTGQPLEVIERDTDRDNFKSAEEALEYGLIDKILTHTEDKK
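Purified B. subtilis ClpP, 10 microg/mL final in Tris/HCl pH8 with KCl, BSA, glycerol and Tween-20, cleaved an Abz/nitrotyrosine-quenched decapeptide. Fluorescence (ex 320, em 430) was read at 0 and 20 min at room temperature. Delta was normalized to 5.8 microM ADEP and DMSO/no-enzyme controls.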
D2 potentiator: potentiates the human D2 dopamine receptor allosterically. P14416. 360,000 compounds, 0.23% hits. AID 624464. potentiation, % (test concentration not listed). DiscoveRx D2 beta-arrestin cells, luminescence, 90 min; 100% = 57 uM dopamine signal; active = potentiation of 50% or more; inconclusive = 30% to 50%; inactive = 30% or less;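 note: compound concentration not given in the record; tested on top of an EC20 dose of dopamine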
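PathHunter beta-arrestin assay in DiscoveRx D2 cells. Compounds were added with an EC20 of dopamine (50 nM final) for 90 min at 37 deg C. Luminescence was read 1 h after detection reagent, with 57 uM dopamine as the EC100 control.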
TRPV1 potentiator: human TRPV1 potentiation | AID 540277 | 320,000 compounds, 0.02% hits | TRPV1-expressing cells, Fluo-8 calcium influx, capsaicin EC20 potentiation; host cell line not named in the record; control for the full effect not named in the record | potentiation, % at 8.33 µM | Q8NER1; active means potentiation above 80%; inconclusive means 30% to 80%; inactive means below 30%; note: 0% is about no effect
Target sequence (Q8NER1 whole entry, looked up): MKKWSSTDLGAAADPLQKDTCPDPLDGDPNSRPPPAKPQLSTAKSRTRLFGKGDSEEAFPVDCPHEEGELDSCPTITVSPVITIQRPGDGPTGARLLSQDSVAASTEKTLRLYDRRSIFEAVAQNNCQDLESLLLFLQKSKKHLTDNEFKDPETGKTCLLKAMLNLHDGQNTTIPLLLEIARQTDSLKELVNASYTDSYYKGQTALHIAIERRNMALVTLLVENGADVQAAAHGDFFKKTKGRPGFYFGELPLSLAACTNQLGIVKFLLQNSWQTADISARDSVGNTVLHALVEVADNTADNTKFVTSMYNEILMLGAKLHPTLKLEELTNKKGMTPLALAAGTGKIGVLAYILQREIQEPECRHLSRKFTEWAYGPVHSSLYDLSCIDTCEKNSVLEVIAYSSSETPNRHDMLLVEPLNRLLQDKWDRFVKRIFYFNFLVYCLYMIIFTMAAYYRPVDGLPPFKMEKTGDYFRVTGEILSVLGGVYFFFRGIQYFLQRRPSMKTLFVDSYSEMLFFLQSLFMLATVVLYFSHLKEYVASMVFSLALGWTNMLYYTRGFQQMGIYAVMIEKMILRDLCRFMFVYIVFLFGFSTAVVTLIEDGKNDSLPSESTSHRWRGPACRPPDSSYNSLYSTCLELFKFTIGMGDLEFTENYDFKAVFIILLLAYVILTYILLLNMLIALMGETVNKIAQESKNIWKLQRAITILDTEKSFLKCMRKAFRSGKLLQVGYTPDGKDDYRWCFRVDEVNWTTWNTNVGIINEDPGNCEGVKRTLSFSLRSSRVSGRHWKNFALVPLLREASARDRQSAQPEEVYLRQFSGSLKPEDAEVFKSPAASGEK
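Fluo-8 calcium influx in TRPV1-expressing cells, kinetic read (ex 480/em 520 nm). Compound added and read 3 min for agonist activity, followed by capsaicin at EC20 final and 2 min further read for enhancement.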
gsp agonist: agonists of gsp mutant (McCune-Albright syndrome) | gsp mutant cells, cAMP HTRF, 30 min; control for the full effect not named in the record | Potency, µM (series often up to 76.9 µM), for inactives: top-dose activation (cAMP increase), hits mostly activators | 340,000 compounds, 0.13% hits | AID 624287; active = well fitted activation curve with a large enough effect; inconclusive = small, poorly fitted or top-dose-only effect, or another doubt; inactive = no such curve, though single readings can be large or run the other way; cell line not stated here;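 note: phosphodiesterase inhibitor Ro 20-1724 added with compounds to block cAMP breakdown; potency is the fitted concentration of half-maximal effect; nearly all actives have a fitted effect of over 60% in size; about a fifth of the inactives were tested at one dose only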
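Cells in DMEM/10% FBS with G418 were pretreated with compounds in DMSO plus […] (300 uM stock) for 30 min at 37C. cAMP was measured by HTRF (cAMP-d2 plus anti-cAMP antibody-K) after 30 min at room temperature.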
Menin MLL FP FL: displaces fluorescein MLL peptide from human menin; Fluorescence polarization, fluorescein-MLL peptide displacement from menin; FP activity change, % at 61.4 µM; 290,000 tested, under 10 active; AID 1766; inconclusive = falling polarisation curve, or a change in total fluorescence; inactive = total fluorescence flat and polarisation flat or rising; no compound was filed as active; the % refers to the polarisation; negative = inhibition;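 note: % of control where 0% means no effect; inhibitors lower the polarisation; unlabelled MLL peptide was the positive control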
Sfp PPTase inh: inhibitors of Bacillus subtilis Sfp phosphopantetheinyl transferase | 310,000 compounds, 3.5% hits | AID 1490 | Biochemical Sfp PPTase activity, qHTS | Potency, µM, for inactives: max response, negative = inhibition, usual class: inhibitors | Q9F4F7; active = well fitted inhibition curve with a large enough effect; inconclusive = small, poorly fitted or top-dose-only effect, or another doubt; inactive = no such curve, though single readings can be large or run the other way;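 note: the enzyme is Sfp with the accession as filed and its product quenches rhodamine fluorescence; potency is the fitted concentration of half-maximal effect; 0% = enzyme reaction without inhibitor and -100% = no enzyme wells; top concentration of the series not given in the record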
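Buffer: 50 mM Hepes-Na pH 7.6, 10 mM MgCl2, 0.01% Nonidet P-40, 0.01% BSA. Enzyme 15 nM, pre-exposed to compound 15 min; substrates then added and fluorescence change tracked over 30 min.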
gsp antag: gsp mutant antagonism; gsp-mutant cells, cAMP HTRF, 30 min; control for the full effect not named in the record; 340,000 compounds, 0.4% hits; Potency, µM (highest dose often 76.9 µM), inactives show top-dose activity change, negative = inhibition, hits mostly inhibitors; active = falling curve of any shape with a large fitted effect; inconclusive = falling curve, mostly with a smaller effect; inactive = flat or rising curve; cell line not stated here;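 note: intracellular cAMP measured with PDE inhibitor Ro 20-1724 present during compound exposure; potency is the fitted concentration of half-maximal effect; % is set by controls: 0 for no effect and ±100 for the full control effect; nearly all actives have a fitted effect of over 65% in size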
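Measurement of cellular cAMP by homogeneous time-resolved fluorescence following a 30 min compound exposure at 37C. The PDE inhibitor […] was present throughout; the assay buffer was DPBS with 0.05% BSA and 0.005% Tween 20.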
The depositor's hits bear a star; ? = inconclusive; . = not tested or not shown; & = joins results of further samples; [ ] = remark or other dose.

SMILES	ClpP mod	D2 potentiator	TRPV1 potentiator	gsp agonist	Menin MLL FP FL	Sfp PPTase inh	gsp antag
O=[N+]([O-])c1ccc(Cl)c(S(=O)(=O)NCC2CCCO2)c1 (stereo not given)	0.8%	-7	0	6%[15.4 µM]	2.1	12%	19%
COc1ccc(C(=O)Nc2cnc3sc(C)nn3c2=O)cc1	?	3	6	3%[15.4 µM]	-6.9	5%	1%
O=C(Nc1ccc(Cl)cc1)OCc1ccccn1	-3.2%	-20	-12	-16%	0.7	2%	14%
CC(=O)N1c2ccc(S(=O)(=O)NCCC(=O)Nc3ccc(C)cn3)cc2CC1C (stereo not given)	-2.3%	-10	-6	-4%	2.7	16%	2%
COCC(=O)Nc1ccc(N2CCN(c3ccccc3)CC2)c(F)c1	0.5%	-4	11	-29%	7.7	8%	13%
Cc1cc(C(F)(F)F)nn1CC(=O)Nc1ccc2c(c1)OCO2	-1.3%	-13	2	2%	.	6%	8%
CC(Sc1nnc(Cc2ccccc2)o1)C(=O)NC1(C#N)CCCCC1 (stereo not given)	2.4%	2	.	-5%	.	.	1%
S=c1[nH]nc(-c2ccncc2)n1Cc1ccccc1	-0.8%	5	3	24%	3.2	22%	1%
O=C(/C=C/c1ccco1)Nc1ccccc1N1CCOCC1	-3.7%	-4	1	-35%[inhibitor]	10	-21%	12%
CC(C)NC(=O)C1CCN(S(=O)(=O)c2ccc(N3CCCC3=O)cc2)CC1	-1.5%	-13	0	2%	.	20%	6%
CNC(=S)N(Cc1cc2cc(C)ccc2n2nnnc12)CC(C)(C)CN(C)C	0.8%	0	14	0%	3.9	8%	2%
S=C(Nc1ccc2nsnc2c1)N1CCCCCC1	.	-7	-8	19%	-1.4	0%	-1%
CC(CN1CCCCC1)C(=O)NNC(=O)C12CC3CC(CC(C3)C1)C2 (stereo not given)	-0.7%	-8	-7	-32%[inhibitor]	-4.7	18%	13%
Fc1ccc(Cn2nnnc2C(c2cccs2)N2CCCCCC2)cc1 (stereo not given)	1.0%	2	28	6%	3.6	16%	-7%
O=C(NCCOc1ccccc1)C1CCC(=O)N(C2CCCCCC2)C1 (stereo not given)	0.8%	6	7	-6%[15.4 µM]	-5.0	13%	5%
COc1ccc(CCNCC(=O)Nc2ccc(C(=O)N3CCCCC3)cc2)cc1	.	-11	7	?	1.3	?	0%
O=C(CCCOc1ccc(Cl)cc1)N1CCCCCC1	-1.2%	-8	-6	?	1.1	?	9%
NC1=NC(=Nc2ccccc2)c2ccccc21	-1.1%	-5	-6	21%	-1.5	16%	-2%
Cc1cc(C)nc(SC/C=C/c2ccccc2)n1	0.3%	-5	4	2%	6.5	89µM*	-3%
Cc1cc(N2C(=O)C3C4C=CC(C4)C3C2=O)ccc1NC(=O)c1cccs1 (stereo not given)	-3.6%	-4	2	-41%[inhibitor]	3.7	2%	-7%

Reprinted at random: 2 entries already listed
SMILES	ClpP mod	D2 potentiator	TRPV1 potentiator	gsp agonist	Menin MLL FP FL	Sfp PPTase inh	gsp antag
Fc1ccc(Cn2nnnc2C(c2cccs2)N2CCCCCC2)cc1 (stereo not given)	1.0%	2	28	6%	3.6	16%	-7%
O=C(NCCOc1ccccc1)C1CCC(=O)N(C2CCCCCC2)C1 (stereo not given)	0.8%	6	7	-6%[15.4 µM]	-5.0	13%	5%

Remaining list, next part.
SMILES	ClpP mod	D2 potentiator	TRPV1 potentiator	gsp agonist	Menin MLL FP FL	Sfp PPTase inh	gsp antag
COc1nc(NCCC2=CCCCC2)nc(OC)n1	-7.6%	-13	-29	-39%	0.8	-3%	2%
O=C(O)C1C2C=CC(C2)C1C(=O)NCc1ccc2c(c1)OCO2 (stereo not given)	0.2%	-6	-7	2%	1.5	-4%	3%
O=C(O)C1CC=CCC1C(=O)Nc1ccc2c(c1)OCCO2 (stereo not given)	0.0%	6	-6	-34%[inhibitor]	0.6	2%	13%
O=C(NC1CCS(=O)(=O)C1)c1ccc(-c2ccc(Br)cc2)o1 (stereo not given)	16µM*	-17	-8	4%	2.1	-6%	-6%
CCCn1c(SCC(=O)Nc2nccs2)nnc1-c1cccnc1	-3.1%	3	5	13%	3.8	4%	8%
Cn1ccnc1SCC(=O)Nc1sccc1C#N	?	-4	10	0%	?	79µM*	-6%
CSc1ccccc1C(=O)Nc1nc2ccccc2c(=O)[nH]1	.	-8	-1	10%	4.2	4%	-16%
CCCc1c(C(=O)O)cnn1-c1ccc(Cl)cc1	.	-1	7	3%	4.6	12%	-9%
O=C(C[n+]1cc(-c2ccccc2)n2c1CCCCC2)c1ccc(Br)cc1	-4.8%	-33	0	15%[15.4 µM]	-18	12%	4%
Cc1c(Cc2ccccc2)c(NCCCO)n2c(nc3ccccc32)c1C#N	-16%	6	-7	-30%[inhibitor]	0.3	-5%	-8%
Cc1nc2sc(-c3ccccc3)nn2c(=O)c1Br	0.8%	-11	-1	-27%	-0.3	9%	-2%
COC(=O)c1c(/N=C/N(C)C)sc2c1CCN(c1ncc(C(F)(F)F)cc1Cl)C2	-9.7%	-23	-3	?	8.0	1%	3%
COc1ccc(CCNC(=O)/C=C/c2ccc(OC)c(S(=O)(=O)N3CCOCC3)c2)cc1	-4.5%	-14	1	?	-2.5	14%	-13%
Cc1sc2nc(CN3CCCCC3)nc(Nc3ccc4c(c3)OCCO4)c2c1C	.	-7	-14	3%[15.4 µM]	-0.5	?	5%
O=C(Cn1cnc2ccccc2c1=O)N1CCOCC1	-2.2%	-2	2	25%	0.9	11%	12%
COc1cccc(Nc2nc(N)nc(CCl)n2)c1	.	3	24	-8%[15.4 µM]	3.9	10%	-10%
CC(=O)Nc1cccc(Oc2ccc([N+](=O)[O-])cc2Cl)c1	.	0	-8	-26%	-1.8	-12%	2%
CC(C)CN=c1cc(-c2ccccc2)oc2ccc(Cl)cc12	8.5%	-6	-17	-40%[inhibitor]	-1.7	-9%	-1%
CC1CCN(S(=O)(=O)c2ccc(Oc3ccc([N+](=O)[O-])cc3)cc2)CC1	-1.8%	-4	6	-8%	3.1	24%	-25%
O=C(COc1ccccc1)Nc1ccc2c(c1)Cc1cc(NC(=O)COc3ccccc3)ccc1-2	-5.5%	-3	13	-4%	6.2	1%	11%
O=C(NCc1ccccc1)C1CCN(S(=O)(=O)c2cc([N+](=O)[O-])ccc2Cl)CC1	.	15	-9	-1%[15.4 µM]	4.2	-1%	-23%
Oc1ccccc1C=NC1=NN(c2cccc(C(F)(F)F)c2)CC1	0.8%	?	9	22%	2.5	-15%	-11%
COC(=O)CSc1nc2ccccc2o1	-1.8%	6	-1	-25%	-3.8	7%	7%
O=C(COC(=O)c1ccc(Cl)c(S(=O)(=O)N2CCN(c3ccc(F)cc3)CC2)c1)Nc1cccc(Cl)c1	2.5%	12	3	16%[15.4 µM]	-0.4	35%[activator]	-12%
Nc1cccc2c1C(=O)N(CCOc1ccccc1F)C2=O	.	-5	16	-7%[15.4 µM]	?	-7%	0%
Cc1c(NC(=O)Cn2[nH]c(=O)c3ccccc3c2=O)c(=O)n(-c2ccccc2)n1C	-5.9%	-11	-3	-29%	1.4	18%	5%
O=C(Nc1ccc2oc(-c3ccc(F)cc3)nc2c1)c1ccccc1F	?	-20	7	?	-3.1	3%	2%
CCOC(=O)c1c(NC(=O)CN2C(=O)NC3(CCCCC3)C2=O)sc(C)c1-c1ccc(C)cc1	-7.9%	-11	16	-16%	-0.3	5%	1%
O=C(O)c1ccc(NC2=Nc3cccc4cccc2c34)cc1	-6.9%	-7	-26	?	-1.2	-16%	10%
COc1ccc(CCn2c(-c3ccco3)nc3nc4ccccc4nc32)cc1	1.8%	-4	.	-1%[15.4 µM]	?	35µM*	-8%
C=CCn1c(NCc2ccc(N(C)C)cc2)nc2ccccc21	-9.0%	-38	17	0%	-2.7	?	-3%
O=C(CCSc1ccccc1)Nc1ccccc1C(=O)N1CCCC1	-1.9%	-13	7	-3%[15.4 µM]	2.2	-6%	11%
O=C(COC(=O)Cn1cnc2ccccc21)Nc1cc2c(cc1Cl)C(=O)c1ccccc1C2=O	1.6%	10	6	-5%	-2.4	-1%	-31%
COC(=O)c1ccc2c(=O)n(CCCCCC(=O)N3CCN(c4ccccc4)CC3)c(=O)[nH]c2c1	-12%	?	-1	1%	0.1	-8%	8.9µM*
Cc1[nH][nH]c(=O)c1C(c1ccc(-c2ccccc2C(=O)O)o1)c1c(C)[nH][nH]c1=O	.	0	1	?	-1.3	?	-3%
N#Cc1ccc(NC(=O)Nc2cccc(C#N)c2)cc1	-1.9%	-40	-20	26%	-1.1	10%	?
C=CCNC(=O)c1ccc(CN2CCC(Cc3ccccc3)CC2)cc1	1.6%	-3	-11	26%	-5.2	18%	19%
Cc1nnc(SCC(=O)Nc2ccc(S(N)(=O)=O)cc2)n(N)c1=O	.	-5	.	1%	.	.	8%
COc1ccc2c(c1)c(=O)c(C(=O)c1ccc(C)cc1)cn2CC(=O)Nc1ccc(F)cc1	-4.7%	-6	3	-1%	4.2	-8%	?
Cc1nc2scc(C)n2c(=O)c1S(=O)(=O)NCCc1ccccc1	3.5%&3.9%	-4	-5	-12%	-1.0	21%	6%
Cc1ccc(S(=O)(=O)Nc2ccc(=O)n(Cc3ccc(Cl)c(Cl)c3)c2)cc1	-17%	15	5	-13%	3.1	?	-26%
CC1CCC2(CC1)NC(=O)N(NC(=O)C1CCN(C(=O)c3ccc(Cl)cc3)CC1)C2=O (stereo not given)	.	1	1	12%[15.4 µM]	.	.	12%
COC(=O)Cn1c(=N)n(CCN2CCCCC2)c2ccccc21	-1.4%	-11	5	-5%	7.6	11%	1%
O=C(Nc1ccn(CC(=O)N2CCN(c3ccccn3)CC2)c(=O)n1)OCc1ccccc1	3.8%	2	-1	12%	.	.	6%
O=C(CCOc1ccccc1)Nc1ccc(S(=O)(=O)N2CCCC2)cc1	23%	12	-13	-36%	3.7	-2%	-4%
Nc1nc(NCC(=O)O)nc(NCc2ccccc2)c1[N+](=O)[O-]	.	-6	3	2%[15.4 µM]	-1.5	6%	4%
COCC1CCN(C(=O)c2cc(COc3cc(C)c(Cl)c(C)c3)on2)C1 (stereo not given)	1.0%	-4	-8	?	0.3	7%	-6%
O=S(=O)(Nc1ccc(-c2ccc3nncn3n2)cc1)c1cccs1	.	3	-24	16%[15.4 µM]	.	.	-8%
